From PubChem
Rango release inh: inhibitors of RanGTP-induced Rango-importin beta complex dissociation; O95149+P62826; Biochemical FRET Rango-importin beta, RanGTP-induced dissociation; Potency, µM (top dose mostly 46.1 µM), for inactives: at the highest dose activity change, negative = inhibition; 0.071% of 340,000 active; AID 540253; active means falling FRET ratio curve, often poorly fitted, with flat reads before Ran was added; inconclusive means other falling curves, or compound fluorescence or quenching; inactive means flat or rising ratio curve;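 further: potency means the concentration at half of the fitted maximal effect; % of control where 0% means no effect; nearly all actives have a fitted effect of over 45% in size; -100% = wells without RanGTP and RCC1; the record marks most hits as doubtful in a second field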
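FRET read at 45 min, room temperature: inhibitors block the CFP/YFP signal rise when RanGTP (0.6 uM Ran, 2 mM GTP, 0.2 uM RCC1) frees Rango (0.1 uM) from importin beta (0.25 uM). Pre-read after 5 min compound exposure flags interference.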
miR-21 FLuc: raises the signal of a miR-21 reporter; HeLa miR-21 FLuc reporter, luciferase, 48 h; Potency, µM (top dose mostly 38.3 µM), without a hit: top-dose reporter change, positive = more light; 340,000 tested, under 10 active; AID 2288; active = well fitted rising curve with a large enough effect; inconclusive = small, poorly fitted or top-dose-only effect; inactive = no such curve, though single readings can be large or run the other way;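 further: % of control where 0% means no effect; miR-21 action dims this reporter so a rising signal means less miR-21 action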
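HeLa cells stably expressing CMV-driven firefly luciferase with a downstream miR-21 binding sequence, endogenously expressing miR-21, were treated with titrations (up to about 40uM final) for 48 hours at 37 degree Celsius. Luciferase luminescence was read after lysis.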
GLA inh pH 4.5: inhibitors of human alpha-galactosidase A at pH 4.5. 230,000 tested, under 10 active. purified enzyme, 4-MU-alpha-Gal fluorescence, pH 4.5. AID 1467. activity change, negative = inhibition, % at 105 µM. P06280; inconclusive = small, poorly fitted or top-dose-only inhibition, or a rising curve; inactive = flat fitted curve, though single readings scatter; no compound was filed as active;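 further: 0% = full activity with enzyme and -100% = basal without enzyme; dose as in the result columns while the protocol names 77 µM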
Target sequence (P06280 whole entry, looked up): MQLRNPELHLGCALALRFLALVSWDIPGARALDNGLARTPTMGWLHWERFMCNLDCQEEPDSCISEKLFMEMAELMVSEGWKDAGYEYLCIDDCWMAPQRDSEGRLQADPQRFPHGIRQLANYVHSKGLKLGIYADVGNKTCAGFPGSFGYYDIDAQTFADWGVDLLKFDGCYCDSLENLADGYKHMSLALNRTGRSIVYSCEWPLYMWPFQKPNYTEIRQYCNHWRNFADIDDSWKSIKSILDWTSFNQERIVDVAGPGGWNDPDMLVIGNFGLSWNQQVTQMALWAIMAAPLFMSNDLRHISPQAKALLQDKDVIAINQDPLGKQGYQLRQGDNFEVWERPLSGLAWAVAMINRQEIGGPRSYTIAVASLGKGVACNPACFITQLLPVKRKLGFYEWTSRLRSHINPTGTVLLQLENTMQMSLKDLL
Rango complex inh: Rango-importin beta binding inhibition; Rango CFP/YFP FRET sensor + importin beta, 45 min; Potency, µM (titrated, usually from 92.2 µM), inactives show at the top dose inhibition of complex formation; 0.031% of 340,000 active; AID 540263; active = rising FRET ratio curve, often small or poorly fitted; inconclusive = mostly compound fluorescence or quenching in the first reads; inactive = flat curves in all reads;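 further: potency means the concentration at half of the fitted maximal effect; 0% = DMSO wells and 100% = buffer wells lacking importin beta; nearly all actives have a fitted effect of over 15% in size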
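Inhibition scored from the CFP 486 nm/YFP 530 nm FRET ratio 45 min after adding 0.125 microM importin beta to 50 nM Rango biosensor preincubated 5 min with compound (room temperature, PBS with DTT, Tween-20, BSA). No-importin wells as positive control.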
An asterisk follows results filed as active; ? = inconclusive; . = no result given. Not all compounds are listed, so the mix of outcomes need not match the whole.

GLA inh pH 4.5	Rango complex inh	Rango release inh	miR-21 FLuc	compound
.	0.3%	13%	.	COc1ccc2oc(C(=O)OCC(=O)N3CC(C)CC(C)C3)c(C)c2c1 (stereo not drawn)
-4	0.1%	1%	-33%	CCCc1ccc(-c2cc(C(=O)Nc3ccc([N+](=O)[O-])cn3)c3ccccc3n2)cc1
.	-5.6%	-13%	.	CC(C)(C)[C@H]1COC(=O)[C@H](Cc2ccc(F)cc2)CC/C=C/C[C@@H](CC(=O)N[C@H](CO)Cc2ccccc2)C(=O)N1
.	-2.1%	34%	2%	COc1cc(NC(=O)CCN2CCN(C/C=C/c3ccccc3)CC2)cc(OC)c1
?	-4.0%	-12%	-5%	COCCn1nnnc1C(c1ccc(OC)c(OC)c1)N1CCc2ccccc21 (stereo not drawn)
.	-0.4%	5%	-7%	O=C(CCN1CCN(S(=O)(=O)c2cccc([N+](=O)[O-])c2)CC1)Nc1ccccc1F
-2	-1.4%	-11%	1%	O=C(N/N=C/c1ccccc1Cl)c1nc2ccc([N+](=O)[O-])cc2c(=O)[nH]1
.	-1.6%	16%	.	CC(=O)c1ccc(S(=O)(=O)N2CCN(CCOc3ccc(Br)cc3)CC2)cc1
1	1.0%	4%	-5%	CN(Cc1ccccc1)C(=O)COc1ccc(-c2nnco2)cc1
.	3.8%	5%	3%	O=C(Nc1ccccc1C(=O)Nc1ccccn1)c1cccc([N+](=O)[O-])c1
3	-5.0%	0%	-2%	O=S(=O)(c1cccc(-n2cnnn2)c1)N1CCOCC1
26	?	15µM*	-10%	Cc1ccc(S(=O)(=O)c2c(N)n(-c3ccccc3)c3nc4ccccc4nc23)cc1

More structures:
GLA inh pH 4.5	Rango complex inh	Rango release inh	miR-21 FLuc	compound
-1	-0.2%	10%	2%	Cc1cc(C)n(-c2nc(NCCN(C)C)c3c4c(sc3n2)COC(C)(C)C4)n1
-11	-3.4%	10%	3%	COc1ccc(CCC(=O)O)cc1OC
.	-1.0%	1%	.	C=CCNc1nc(C(=O)OCC(=O)NCc2ccccc2OC)cs1
.	0.2%	4%	.	COc1ccc(S(=O)(=O)N2CCOCC2)cc1NC(=O)CSc1nnc(N)s1
.	?	?	-25%	COCCCNC(=O)/C(C#N)=C/c1c(N2CCN(c3ccccc3)CC2)nc2ccccn2c1=O
.	0.5%	15%	.	O=C(/C=C/c1ccco1)OCC(=O)c1ccc(OC(F)F)cc1
-2	-0.8%	-9%	2%	Cc1ccc(NC(=O)/C=C/c2ccco2)nc1
2	-2.3%	13%	-9%	O=C(CSc1nc2nc(-c3cccs3)cc(C(F)(F)F)c2c(=O)[nH]1)NCc1ccco1
.	4.7%	2%	-3%	CCc1ccc(OCC(=O)NC2CCCCC2)c(Br)c1
.	-3.0%	-3%	1%	CC(=O)Nc1ccc(N(C(=O)CNC(=O)c2cccs2)C(C(=O)NCC2CCCO2)c2ccccc2)cc1 (stereo not drawn)
-2	0.9%	?	-14%	CC(C)C[C@H](NC(=O)OC(C)(C)C)C(=O)N/N=C/c1ccc2nccnc2c1
.	-0.4%	-1%	.	Cc1cccc(C)c1NC(=O)CN1CCN(C(=O)CNC(=O)c2ccc(N3CCCC3=O)cc2)CC1

(continued)
GLA inh pH 4.5	Rango complex inh	Rango release inh	miR-21 FLuc	compound
-12	-2.3%	23%	-4%	CC(C)Cn1c(SCc2nnc(-c3cccs3)o2)nc(O)cc1=O
.	-0.5%	?	-2%	CCCC(c1nnnn1C1CCCCC1)N1CCN(C(=O)c2ccco2)CC1 (stereo not drawn)
.	-3.0%	-8%	.	CCOc1ccc(/C=C/C(=O)N(C)CC(=O)Nc2cccc(F)c2)cc1OCC
.	0.6%	17%	.	N#Cc1ccc(-c2ccc(C3Nc4ccccc4C(=O)N3O)o2)cc1 (stereo not drawn)
.	1.8%	4%	0%	NS(=O)(=O)c1ccc(CNC(=O)COc2ccc3c4c(c(=O)oc3c2)CCCC4)cc1
.	-0.2%	27%	-6%	Cc1[nH]c2ccc3ccccc3c2c(=O)c1C/C=C/Cl
-5	2.0%	-9%	-4%	CCOC(=O)C1=C2N(C)c3ccccc3N2CCC1=O
.	0.4%	-6%	.	CN1CCN(C(=O)N(c2ccccc2)c2ccccc2)CC1
.	0.4%	-1%	.	O=C(CN1C(=O)C2(OCCO2)c2cc(Br)ccc21)NO
.	1.2%	-12%	.	COc1ccccc1S(=O)(=O)NCc1ccc(C(=O)N(C)Cc2ccc(F)cc2)cc1
.	-4.4%	15%	0%	Cc1cccc[n+]1CC(=O)Nc1ccccc1
3	.	.	-3%	CCc1c(C)c(C#N)c2nc3ccccc3n2c1N1CCN(c2cc(C)ccn2)CC1

5 records drawn at random from those above, as already listed:
GLA inh pH 4.5	Rango complex inh	Rango release inh	miR-21 FLuc	compound
.	-4.4%	15%	0%	Cc1cccc[n+]1CC(=O)Nc1ccccc1
.	0.4%	-1%	.	O=C(CN1C(=O)C2(OCCO2)c2cc(Br)ccc21)NO
-12	-2.3%	23%	-4%	CC(C)Cn1c(SCc2nnc(-c3cccs3)o2)nc(O)cc1=O
.	0.4%	-6%	.	CN1CCN(C(=O)N(c2ccccc2)c2ccccc2)CC1
.	-3.0%	-8%	.	CCOc1ccc(/C=C/C(=O)N(C)CC(=O)Nc2cccc(F)c2)cc1OCC

(listing goes on)
GLA inh pH 4.5	Rango complex inh	Rango release inh	miR-21 FLuc	compound
-6	-3.6%	-20%	-1%	CCCn1c(SC(C(=O)Nc2cc(C)ccc2OC)c2ccccc2)nc2ccccc2c1=O (stereo not drawn)
3	-0.6%	11%	-13%	Cc1ccc2nsnc2c1S(=O)(=O)N1CCCC1
.	2.8%	4%	.	Cc1ccccc1COn1nnc2ccc(S(=O)(=O)N3CCOCC3)cc21
-12	-0.4%	-1%	-40%	CCOc1ccc(NC(=S)NN(C)C(=S)Nc2ccc(OCC)cc2)cc1
-5	0.5%	2%	5%	CCOC(=O)CNC(=O)C1CCCc2c1[nH]c1ccc(Cl)cc21 (stereo not drawn)
.	-1.0%	-13%	.	CCc1nc(N)c(C#N)c(-c2cccn2C)c1C
2	1.4%	-7%	-21%	Cc1noc(C)c1C(=O)Nc1nc(-c2ccccc2Cl)cs1
-3	5.2%	-12%	-8%	Cc1c(C(=O)NCCCN2CCCC2=O)oc2ccc(S(=O)(=O)N3CCOCC3)cc12
0	0.6%	-23%	-14%	CCCC[C@@H]1C[C@H]1[C@@H](NC(=O)c1ccccc1)c1ccccc1C(F)(F)F
6	-14%	-1%	1%	CCOC(=O)C1(CC2CCCCO2)CCN(S(=O)(=O)c2ccc(OC)cc2)CC1 (stereo not drawn)
.	0.4%	0%	-4%	Cc1ccc(-c2nc3c(c(SCC(=O)N4CCOCC4)n2)Cc2c(CO)cnc(C)c2O3)cc1
1	-0.3%	-7%	-5%	COc1ccc(C2OC(=O)CC2C(=O)NCc2ccc(C)cc2)cc1OC (stereo not drawn)

The list goes on:
GLA inh pH 4.5	Rango complex inh	Rango release inh	miR-21 FLuc	compound
3	2.4%	-3%	2%	COc1ccc(OCC(=O)Nc2ccc3c(c2)nc(CN2CCN(C(C)=O)CC2)n3C)cc1
4	2.1%	0%	-3%	CCOc1ccc(C(=O)OCC(=O)Nc2ccc(SC(F)F)cc2)cc1OCC
.	3.5%	-7%	-6%	CC1(C)C(=S)N(Cc2ccccc2)c2ccccc21
.	-7.2%	3%	.	OCCOCCn1c(CCNc2nc(-c3ccc(Cl)cc3)cs2)nc2cc(Cl)c(Cl)cc21
0	-0.1%	9%	-1%	O=C(CCCCn1c(=O)[nH]c2ccccc2c1=O)NCCC1=CCCCC1
-4	?	0%	-36%	COc1c(S(=O)(=O)N2CCCC2)ccc(Cl)c1Cl
.	3.0%	1%	.	COc1ccccc1N1CCN(CCCCN2C(=O)C3CCCN3C2=O)CC1 (stereo not drawn)
1	-2.4%	0%	-5%	Cc1cccc(OCc2nnc(SCC(=O)N3CCN(c4ccccc4)CC3)o2)c1C
.	4.4%	22%	1%	CCOC(=O)C1CCN(C(=O)c2ccccc2NC(=O)C2=C(C)OCCS2)CC1
.	4.9%	23%	?	Cc1ccc(C)c(N2CCN(c3ncccc3[N+](=O)[O-])CC2)c1
.	-3.0%	-1%	-1%	Cc1cccc(C(C(=O)NC2CCCC2)N(Cc2cccnc2)C(=O)c2csnn2)c1 (stereo not drawn)
.	2.7%	-21%	.	COc1ccc(S(=O)(=O)Cc2ccc(C(=O)N3CCN(c4ncccn4)CC3)o2)cc1

Additional structures
GLA inh pH 4.5	Rango complex inh	Rango release inh	miR-21 FLuc	compound
-28	-1.7%	-8%	0%	CC(C)(C)c1ccccc1N=Cc1ccc2ccccc2n1
.	0.7%	-4%	.	COc1ccc(CCNC(=O)c2cc(C3CC3)nc3c2cnn3C(C)C)cc1
.	-0.9%	-8%	.	COc1ccc(CCC(=O)OCc2csc(CC(=O)Nc3ccc(C)cc3)n2)cc1OC
.	2.5%	1%	2%	Cc1ccc(CNC(=O)CSc2nnc(CNC(=O)c3ccccc3)o2)cc1
.	-1.0%	21%	.	Cn1c(CC(=O)NNC(=O)c2ccccc2[N+](=O)[O-])nc2ccccc21
1	6.6%	5%	-13%	Cc1cc(-c2nnc(CCC(=O)NC(C)c3cccc4ccccc34)o2)no1 (stereo not drawn)
.	-1.1%	-5%	-9%	COC1CCCN(C(=O)c2ccc3oc(Cc4ccc(Cl)cc4)nc3c2)C1 (stereo not drawn)
3	-0.8%	0%	-14%	COc1ccc(CCNC(=O)c2ccc(Cl)cc2)cc1
-8	-1.1%	18%	8%	Cc1cc(C(C)(C)C)nc2[nH]n(-c3ccccc3)c(=O)c12
5	-0.6%	4%	2%	CC(=O)c1ccc(NC(=O)C2CC(=O)Nc3nc4ccccc4n32)cc1 (stereo not drawn)
.	-0.7%	-7%	.	C[C@@H]1NC(=O)N[C@@H]1CCCCCC(=O)O
-5	2.6%	-6%	-5%	CCOc1ccc(C(CC(=O)O)NC(=O)c2ccco2)cc1 (stereo not drawn)

Further entries.
GLA inh pH 4.5	Rango complex inh	Rango release inh	miR-21 FLuc	compound
6	?	38%	-3%	C/C(=N\NC(=O)C1(C)NC(C)(C)Cc2ccccc21)c1ccccc1 (stereo not drawn)
5	3.3%	0%	7%	Cn1c(=O)c2c(nc(Sc3ncnn3CC(=O)NC3CCCCC3)n2C)n(C)c1=O
.	1.5%	7%	-2%	COCCCNC(=O)c1ccc2c(=O)n(Cc3ccc(Cl)cc3)c(=S)[nH]c2c1
.	0.5%	-10%	.	CCCCN1C(=O)c2ccc(C(=O)OCC(=O)NCCc3ccc(S(N)(=O)=O)cc3)cc2C1=O
-5	-3.1%	-5%	-1%	COc1ccc(OC)c(S(=O)(=O)n2nnc3ccccc32)c1
-3	0.1%	1%	14%	CCCCSC(=S)NC1CCS(=O)(=O)C1 (stereo not drawn)
.	-3.0%	4%	-38%	Cc1ccn2cc(-c3ccc(O)c(O)c3)nc2c1
-2	-1.3%	2%	-27%	COc1ccc(/C=C/C(=O)CCC(=O)O)cc1
.	2.3%	0%	.	CC(OC(=O)CCN=C1NS(=O)(=O)c2ccccc21)C(=O)Nc1ccc(F)c(F)c1F (stereo not drawn)
-2	3.3%	2%	1%	CC(C)(CO)NCc1ccc(Br)cc1
.	?	?	-8%	Cc1ccc(Cn2c(=N)c(C(=O)NCCN3CCOCC3)cc3c(=O)n4ccccc4nc32)cc1
.	-0.1%	-2%	19%	CC1CCN(CCCNC(=O)c2cc3c(s2)-c2ccccc2OC3)CC1

Other entries:
GLA inh pH 4.5	Rango complex inh	Rango release inh	miR-21 FLuc	compound
0	-0.4%	13%	0%	CCN(CC)CC(=O)c1ccc(-c2ccccc2)cc1
.	7.6%	7%	-4%	Cc1cc(NC(=O)CCC(=O)N(CC(=O)NC2CCCC2)c2ccc(F)c(Cl)c2)no1
-3	6.3%	4%	-1%	Cc1ccc(C)[n+](CC(=O)N2CCCCC2)c1
9	2.7%	1%	2%	CC1(C)Oc2ccc(C(=O)NC3CCCC3)cc2N(CC(=O)NC2CCCC2)C1=O
